# HIV Env fusion: blocks HIV Env-driven cell-cell fusion; AID 651610; hit rate 1.1% among 360,000; inhibition, % at 12.3 µM; HeLa-JRFL Env/CEM21 cell fusion, luciferase;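 active = mean replicate inhibition score of at least 50 and every replicate individually at or above 50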;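 also: 0% = plate neutral controls and 100% = maraviroc near 300 nM; one replicate is shown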
# Yeast UUG start: modulators of start codon recognition fidelity in yeast; S. cerevisiae UUG-firefly luciferase reporter, luminescence/redox ratio; hit rate 0.13% among 350,000; activity score, % at 18.7 µM;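 active = replicate mean at a twofold rise or more, about +100% in these data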;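 also: firefly luciferase made from a UUG start codon reports start codon fidelity; reporter light over untreated wells divided by growth signal over untreated wells; some hits fall short of that in this replicate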
# * = called active by the depositor; [ ] = dose if it differs, or a comment. This is a subset. The share of hits here may be higher or lower than overall.
SMILES,HIV Env fusion,Yeast UUG start
COc1ccc(CN(C)C[C@H]2OCCCC[C@@H](C)Oc3ccc(NC(=O)Nc4ccc(C(F)(F)F)cc4)cc3C(=O)N([C@@H](C)CO)C[C@H]2C)cc1,27[16.7 µM],11
O=C(NCC[C@H]1CC[C@H](NC(=O)C2CCCC2)[C@@H](CO)O1)Nc1ccc(Cl)cc1,-7[16.7 µM],2
O=C(C[C@@H]1C[C@H]2c3cc(NS(=O)(=O)c4ccc(F)cc4)ccc3O[C@H]2[C@@H](CO)O1)N1CCCCC1,7[16.7 µM],6
Cc1noc(C)c1NC(=O)N(C)C[C@H]1Oc2ccc(NC(=O)Nc3ccc(C(F)(F)F)cc3)cc2C(=O)N([C@@H](C)CO)C[C@H]1C,1[16.7 µM],-1
O=C(C[C@H]1C=C[C@H](NC(=O)C2CCC2)[C@@H](CO)O1)NC1CCCCC1,-18[16.7 µM],-16
CCC(=O)N[C@@H]1CC[C@@H](CC(=O)NCc2cc(F)cc(F)c2)O[C@@H]1CO,0[16.7 µM],-3
Cc1noc(C)c1NC(=O)N[C@@H]1CC[C@@H](CCNC(=O)C2CCCCC2)O[C@H]1CO,7[16.7 µM],0
O=C(C[C@H]1C=C[C@@H](NC(=O)C2CC2)[C@H](CO)O1)NCc1ccncc1,-26[16.7 µM],2
CO[C@@H]1CN(C)C(=O)c2cc(NC(C)=O)ccc2OC[C@@H](C)N(C(=O)C2CC2)C[C@H]1C,-3[16.7 µM],-1
CC(C)NC(=O)Nc1ccc2c(c1)C(=O)N([C@H](C)CO)C[C@H](C)[C@H](CN(C)Cc1ccccc1)OCCCC[C@@H](C)O2,-8[16.7 µM],21
O=S(=O)(Cc1ccccc1)NCC[C@H]1CC[C@@H](NS(=O)(=O)c2ccccc2)[C@H](CO)O1,18[16.7 µM],1
N#C[C@H]1[C@@H](c2ccc(-c3ccccc3)cc2)[C@@H](CO)N1S(=O)(=O)Cc1ccccc1,62*[16.7 µM],-2

# 3 entries from above, arranged by number of heavy atoms, low to high.
SMILES,HIV Env fusion,Yeast UUG start
O=C(NCC[C@H]1CC[C@H](NC(=O)C2CCCC2)[C@@H](CO)O1)Nc1ccc(Cl)cc1,-7[16.7 µM],2
N#C[C@H]1[C@@H](c2ccc(-c3ccccc3)cc2)[C@@H](CO)N1S(=O)(=O)Cc1ccccc1,62*[16.7 µM],-2
CC(C)NC(=O)Nc1ccc2c(c1)C(=O)N([C@H](C)CO)C[C@H](C)[C@H](CN(C)Cc1ccccc1)OCCCC[C@@H](C)O2,-8[16.7 µM],21

# (list continues)
SMILES,HIV Env fusion,Yeast UUG start
C[C@H]1CN([C@@H](C)CO)C(=O)c2cc(C#CC3CC3)cnc2O[C@@H]1CN(C)C(=O)c1ccc(F)cc1,4[16.7 µM],-2
COCCNC(=O)C[C@H]1C[C@@H]2c3cc(NC(=O)C4CCC4)ccc3O[C@@H]2[C@@H](CO)O1,3[16.7 µM],12
COc1ccc(NC(=O)Nc2ccc3c(c2)C(=O)N([C@@H](C)CO)C[C@@H](C)[C@H](CN(C)S(=O)(=O)c2ccc(OC)cc2)O3)cc1,12[16.7 µM],-1
COc1cccc(CNC(=O)C[C@@H]2CC[C@@H]3[C@H](COc4ccc(NC(C)=O)cc4C(=O)N3C)O2)c1,-4[16.7 µM],-11
C[C@H]1CN([C@@H](C)CO)C(=O)c2cccc(NC(=O)c3nc4ccccc4s3)c2O[C@H]1CN(C)S(=O)(=O)c1ccccc1,12[16.7 µM],-5
CNC(=O)C[C@@H]1CC[C@@H]2[C@@H](COc3ccc(NC(=O)NC(C)C)cc3C(=O)N2C)O1,-10[16.7 µM],-12
C[C@H](CO)N1C[C@H](C)[C@@H](CN(C)Cc2cccc(F)c2)Oc2cc(C#CC3CC3)ccc2S1(=O)=O,17[16.7 µM],-5
C[C@H](CO)N1C[C@H](C)[C@@H](CN(C)CC2CC2)Oc2c(NC(=O)c3nc4ccccc4s3)cccc2C1=O,-8[16.7 µM],-5
CCNC(=O)C[C@H]1CC[C@@H]2[C@@H](COc3ccc(NC(=O)Nc4ccccc4OC)cc3C(=O)N2C)O1,9[16.7 µM],7
C[C@@H]1CCCCO[C@@H](CN(C)S(=O)(=O)c2ccc(Cl)cc2)[C@H](C)CN([C@H](C)CO)C(=O)c2cc(NS(=O)(=O)c3cn(C)cn3)ccc2O1,-21[16.7 µM],9
CCC(=O)N[C@@H]1CC[C@H](CCNS(=O)(=O)c2ccc(Cl)cc2)O[C@H]1CO,-4[16.7 µM],4
C[C@@H]1CN([C@H](C)CO)C(=O)Cc2cc(NC(=O)CCN3CCOCC3)ccc2O[C@@H]1CN(C)Cc1ccc(C(F)(F)F)cc1,14[16.7 µM],28
C[C@@H]1CN([C@H](C)CO)C(=O)Cc2cc(NS(C)(=O)=O)ccc2O[C@H]1CN(C)Cc1ccc(C(=O)O)cc1,-46[16.7 µM],-10
C[C@@H]1CN([C@H](C)CO)C(=O)c2cc(NC(=O)CCCN(C)C)ccc2O[C@@H](C)CCCCO[C@@H]1CN(C)S(=O)(=O)c1cccs1,17[16.7 µM],20
C[C@H]1CN([C@@H](C)CO)C(=O)c2cc(C#CC3CCCCC3)cnc2O[C@@H]1CN(C)C(=O)Cc1ccccn1,-1[16.7 µM],0
C[C@@H]1CN([C@@H](C)CO)C(=O)c2cc(NC(=O)Nc3cccc4ccccc34)ccc2O[C@@H]1CN(C)S(=O)(=O)c1ccc(F)cc1,-27[16.7 µM],-1
C[C@H]1CN([C@@H](C)CO)C(=O)c2cccc(NC(=O)Nc3ccccc3)c2O[C@@H]1CN(C)C,1[16.7 µM],-16
C[C@H](CO)N1C[C@H](C)[C@H](CN(C)Cc2ccc3c(c2)OCO3)Oc2ccc(NC(=O)CCC(F)(F)F)cc2C1=O,0[16.7 µM],3
CCC(=O)N1C[C@@H](C)[C@H](OC)CN(C)C(=O)c2cc(NC(=O)Nc3ccccc3)ccc2OC[C@H]1C,-8[16.7 µM],-13
COC(=O)C[C@@H]1CC[C@H](NC(=O)Nc2ccc(C(F)(F)F)cc2)[C@H](CO)O1,6[16.7 µM],-5
C[C@H]1CN([C@@H](C)CO)S(=O)(=O)c2ccc(-c3ccncc3)cc2O[C@H]1CN(C)Cc1cccnc1,-21[16.7 µM],-12
C[C@H]1CN([C@@H](C)CO)C(=O)c2cc(NC(=O)Nc3ccc4c(c3)OCO4)ccc2O[C@H]1CN(C)Cc1ccccc1,-3[16.7 µM],7
C[C@@H]1CN([C@@H](C)CO)S(=O)(=O)c2ccc(-c3ccccc3)cc2O[C@H]1CN(C)C(=O)Nc1ccccc1F,1[16.7 µM],25
CO[C@@H]1CN(C)C(=O)c2ccc(NC(=O)Nc3c(C)noc3C)cc2OC[C@@H](C)N(C)C[C@H]1C,-6[16.7 µM],8
CNC(=O)C[C@H]1CC[C@H]2[C@@H](COc3ccc(NC(=O)NCc4ccccc4)cc3C(=O)N2C)O1,-2[16.7 µM],6
C[C@H]1CCCCO[C@H](CN(C)S(C)(=O)=O)[C@@H](C)CN([C@@H](C)CO)C(=O)c2cc(NS(=O)(=O)c3cn(C)cn3)ccc2O1,-3[16.7 µM],-6
CCNC(=O)C[C@@H]1CC[C@@H]2[C@@H](COc3ccc(NC(=O)Nc4ccc(F)cc4)cc3C(=O)N2C)O1,-1[16.7 µM],1
C[C@@H]1CN([C@@H](C)CO)C(=O)c2cc(/C=C/c3ccccc3)cnc2O[C@@H]1CN(C)C(=O)c1ccc2c(c1)OCO2,-12[16.7 µM],5
C[C@@H]1CN([C@H](C)CO)S(=O)(=O)c2ccc(C#Cc3ccccc3)cc2O[C@@H]1CN(C)CC1CC1,-53[16.7 µM],22
COc1ccc(NC(=O)N(C)C[C@@H]2Oc3c(NC(=O)c4nc5ccccc5s4)cccc3C(=O)N([C@H](C)CO)C[C@@H]2C)cc1,-20[16.7 µM],-2
CC(C)CC#Cc1ccc2c(c1)O[C@H](CN(C)C(=O)CC1CC1)[C@H](C)CN([C@@H](C)CO)S2(=O)=O,23[16.7 µM],6
C[C@@H]1CCCCO[C@@H](CN(C)C(=O)Nc2ccc(C(F)(F)F)cc2)[C@H](C)CN([C@@H](C)CO)C(=O)c2cc(NC(=O)Nc3ccccc3)ccc2O1,-11[16.7 µM],-30
CCCC(=O)Nc1ccc2c(c1)C(=O)N(C)C[C@H](OC)[C@H](C)CN(C)[C@H](C)CO2,-3[16.7 µM],-4
C[C@@H]1CCCCO[C@H](CN(C)C(=O)Nc2cccc3ccccc23)[C@H](C)CN([C@@H](C)CO)C(=O)c2cc(N(C)C)ccc2O1,18[16.7 µM],12
C[C@H](CO)N1C[C@H](C)[C@H](CN(C)C(=O)Cc2cccnc2)Oc2cc(C3=CCCCC3)ccc2S1(=O)=O,-2[16.7 µM],9
Cc1ccc(S(=O)(=O)N(C)C[C@@H]2Oc3cc(Br)ccc3S(=O)(=O)N([C@@H](C)CO)C[C@H]2C)cc1,28[16.7 µM],13

# 2 records drawn at random from the list so far, as already listed:
SMILES,HIV Env fusion,Yeast UUG start
Cc1ccc(S(=O)(=O)N(C)C[C@@H]2Oc3cc(Br)ccc3S(=O)(=O)N([C@@H](C)CO)C[C@H]2C)cc1,28[16.7 µM],13
CCNC(=O)C[C@@H]1CC[C@@H]2[C@@H](COc3ccc(NC(=O)Nc4ccc(F)cc4)cc3C(=O)N2C)O1,-1[16.7 µM],1

# Carrying on:
SMILES,HIV Env fusion,Yeast UUG start
C[C@H]1CN([C@@H](C)CO)S(=O)(=O)c2ccc(-c3cccc(C#N)c3)cc2O[C@@H]1CN(C)C(=O)c1ccncc1,1[16.7 µM],3
C[C@H](CO)N1C[C@H](C)[C@@H](CN(C)S(=O)(=O)c2cccc(F)c2)Oc2ncc(C#CC3(O)CCCC3)cc2C1=O,-14[16.7 µM],15
CN(C)CCCNC(=O)[C@@]1(c2ccc([N+](=O)[O-])cc2)CC(=O)N(C2CCCCC2)[C@@H]1c1ccc(CO)cc1I,-4[16.7 µM],0
C[C@@H]1CCCCO[C@H](CN(C)C(=O)CCCN(C)C)[C@@H](C)CN([C@@H](C)CO)C(=O)c2cc(NC(=O)Nc3ccc(F)cc3)ccc2O1,-3[16.7 µM],-12
CC(C)C#Cc1ccc([C@H]2[C@@H](C#N)N(C(=O)C3CCOCC3)[C@H]2CO)cc1,-4[16.7 µM],-15
C[C@H]1CCCCO[C@H](CN(C)C(=O)Nc2ccc(F)cc2)[C@@H](C)CN([C@@H](C)CO)C(=O)c2cc(NS(=O)(=O)c3ccc(F)cc3)ccc2O1,23[16.7 µM],-13
C[C@@H]1CN([C@H](C)CO)C(=O)c2cc(C#CC3CCCCC3)cnc2O[C@H]1CN(C)C(=O)Cc1ccccn1,-16[16.7 µM],-9
C[C@@H]1CN([C@@H](C)CO)C(=O)Cc2cc(NC(=O)Nc3cccc4ccccc34)ccc2O[C@H]1CN(C)S(=O)(=O)c1ccc(Cl)cc1,9[16.7 µM],9
COC(=O)C[C@H]1C[C@@H]2c3cc(NS(=O)(=O)c4ccc(OC)cc4)ccc3O[C@@H]2[C@@H](CO)O1,-14[16.7 µM],12
CC(C)c1cn(CC[C@H]2CC[C@@H](NS(=O)(=O)c3ccc(F)cc3)[C@@H](CO)O2)nn1,-12[16.7 µM],-5
CCCNC(=O)Nc1ccc2c(c1)C(=O)N(C)[C@H]1CC[C@@H](CC(=O)NC)O[C@H]1CO2,-7[16.7 µM],-1
CCNC(=O)C[C@@H]1CC[C@H]2[C@@H](COc3ccc(NC(=O)Nc4ccc(Cl)cc4)cc3C(=O)N2C)O1,-29[16.7 µM],10

# In another format: 3 of the compounds above
COC(=O)C[C@H]1C[C@@H]2c3cc(NS(=O)(=O)c4ccc(OC)cc4)ccc3O[C@@H]2[C@@H](CO)O1
  HIV Env fusion: -14[16.7 µM]	Yeast UUG start: 12
CCNC(=O)C[C@@H]1CC[C@H]2[C@@H](COc3ccc(NC(=O)Nc4ccc(Cl)cc4)cc3C(=O)N2C)O1
  HIV Env fusion: -29[16.7 µM]	Yeast UUG start: 10
C[C@@H]1CN([C@@H](C)CO)C(=O)c2cc(/C=C/c3ccccc3)cnc2O[C@@H]1CN(C)C(=O)c1ccc2c(c1)OCO2
  HIV Env fusion: -12[16.7 µM]	Yeast UUG start: 5

# (cont.)
SMILES,HIV Env fusion,Yeast UUG start
COc1cccc(NC(=O)C[C@H]2CC[C@H]3[C@H](COc4ccc(NC(C)=O)cc4C(=O)N3C)O2)c1,7[16.7 µM],0
CCC(=O)Nc1ccc2c(c1)OC[C@H](C)N(CC1CCOCC1)C[C@@H](C)[C@H](OC)CN(C)C2=O,0[16.7 µM],-6
C[C@H]1CCCCO[C@@H](CN(C)C)[C@@H](C)CN([C@@H](C)CO)C(=O)c2cc(NC(=O)Cc3ccccc3)ccc2O1,-12[16.7 µM],-7
COc1ccc(NC(=O)Nc2ccc3c(c2)C(=O)N([C@@H](C)CO)C[C@@H](C)[C@@H](CN(C)C(=O)Nc2ccc4c(c2)OCO4)O3)cc1,5[16.7 µM],23
Cc1noc(C)c1S(=O)(=O)Nc1ccc2c(c1)C(=O)N([C@H](C)CO)C[C@@H](C)[C@H](CN(C)C(=O)c1ccccc1)OCCCC[C@@H](C)O2,-19[16.7 µM],30
C[C@H](CO)N1C[C@H](C)[C@@H](CN(C)Cc2ccc(Cl)c(Cl)c2)OCCCC[C@H](C)Oc2ccc(NS(C)(=O)=O)cc2C1=O,18[16.7 µM],7
C[C@@H]1CCCCO[C@H](CN(C)Cc2ccccc2)[C@@H](C)CN([C@@H](C)CO)C(=O)c2cc(NC(=O)CCCCCC(=O)Nc3ccccc3N)ccc2O1,4[16.7 µM],13
CC(C)C#Cc1cnc2c(c1)C(=O)N([C@@H](C)CO)C[C@H](C)[C@@H](CN(C)C(=O)Nc1ccccc1F)O2,1[16.7 µM],-5
CCS(=O)(=O)N[C@H]1CC[C@@H](CC(=O)NCc2ccc(F)cc2)O[C@@H]1CO,-273[16.7 µM],-8
COc1ccc(NC(=O)Nc2ccc3c(c2)C(=O)N([C@@H](C)CO)C[C@@H](C)[C@H](CN(C)S(=O)(=O)c2ccc(OC)cc2)OCCCC[C@H](C)O3)cc1,29[16.7 µM],-6

# Compound activity from PubChem.
